2A StopGo = High Throughput Screening for Foot and Mouth Disease Virus Antivirals; human cells with a luciferase reporter of 2A StopGo recoding; control for the full effect not named in the record; Potency, µM (highest dose often 57.9 µM), for the others: at the top dose signal change, negative = less light; hit rate 1.2% among 410,000; active = well fitted falling curve with a large enough effect; inconclusive = small, poorly fitted or top-dose-only effect; inactive = no such curve, though single readings can be large or run the other way; tested in HEK293T cells; note: % is set by controls: 0 for no effect and ±100 for the full control effect; nearly all actives have a fitted effect of over 45% in size; luciferase light after 4 h
SARS PLpro yeast = qHTS of Yeast-based Assay for SARS-CoV PLP. S. cerevisiae expressing SARS-CoV PLpro, growth rescue; control for the full effect not named in the record. Potency, µM (highest dose often 32.9 µM), for inactives: at the top dose activity, positive = growth rescue. hit rate 0.19% among 330,000; active means well fitted rising curve with a large enough effect; inconclusive means small, poorly fitted or top-dose-only effect; inactive means no such curve, though single readings can be large or run the other way; note: 0% is about no effect; nearly all actives have a fitted effect of over 55% in size; growth read by luminescence after 48 h
Cruzain inh noDet = qHTS Assay for Promiscuous and Specific Inhibitors of Cruzain (without detergent) | Cruzipain (Trypanosoma cruzi), P25779 | purified cruzain, Z-FR-AMC fluorescence, no detergent | Potency, µM, for inactives: max response, negative = inhibition, most hits filed as inhibitors | hit rate 2.3% among 200,000 | AID 1476, 2009;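 note: plate controls were enzyme without inhibitor for no effect and buffer without enzyme for full effect; nearly all actives have a fitted effect of over 40% in size; top concentration of the series not given in the record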
Target sequence (P25779 123-467 limits assumed): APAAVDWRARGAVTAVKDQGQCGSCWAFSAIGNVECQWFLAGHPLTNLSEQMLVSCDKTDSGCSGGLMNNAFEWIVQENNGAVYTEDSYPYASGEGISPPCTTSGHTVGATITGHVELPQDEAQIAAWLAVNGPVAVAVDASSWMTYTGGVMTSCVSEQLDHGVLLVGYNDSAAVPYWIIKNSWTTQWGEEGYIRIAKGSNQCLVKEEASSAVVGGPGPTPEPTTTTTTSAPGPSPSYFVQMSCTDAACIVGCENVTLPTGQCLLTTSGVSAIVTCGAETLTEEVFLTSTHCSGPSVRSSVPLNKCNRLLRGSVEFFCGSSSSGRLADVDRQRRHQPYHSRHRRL
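Purified cruzain at 1.5 nM, pre-incubated 15 min with compound at room temperature in 100 mM sodium acetate pH 5.5, 5 mM DTT, 0.00005% Triton X-100. Reaction started with 2 uM Z-FR-AMC; AMC fluorescence increase over 60 s gives rate.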
RE007 growth inh = qHTS Assay for Inhibitors of the HIV-1 protein Vpr; Potency, µM (doses to about 92.2 µM), for inactives: at the top dose activity change, negative = less growth; hit rate 0.21% among 360,000; S. pombe RE007 Vpr strain, BacTiter-Glo ATP luminescence, 24 h; control for the full effect not named in the record; active = well fitted falling curve with a large enough effect; inconclusive = small, poorly fitted or top-dose-only effect; inactive = no such curve, though single readings can be large or run the other way;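 note: % is set by controls: 0 for no effect and ±100 for the full control effect; nearly all actives have a fitted effect of over 50% in size; the assay follows cell death caused by Vpr and the record does not say whether a fall means rescue or toxicity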
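Fission yeast RE007 carrying one integrated HIV-1 vpr copy, seeded at OD 0.01 in PMG+AL medium with 23 nL pinned compound. Grown 24 h at 30 degrees; viability read by BacTiter-Glo luminescence after 5 min.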
LASV entry inh = qHTS for Inhibitors of binding or entry into cells for Lassa Virus. Lassa virus pseudotype entry inhibition, cell reporter; control for the full effect not named in the record. Potency, µM (highest dose often 37.9 µM), for the others: at the top dose activity change, negative = inhibition, most hits filed as inhibitors. hit rate 1.2% among 300,000. AID 540256, 2011; active means well fitted inhibition curve with a large enough effect; inconclusive means small, poorly fitted or top-dose-only effect, or effect the other way; inactive means flat fitted curve, though single readings scatter; tested in HEK293 cells; note: % is set by controls: 0 for no effect and ±100 for the full control effect; nearly all actives have a fitted effect of over 50% in size; luciferase read-out
Marburg entry inh = qHTS for inhibitors of binding or entry into cells for Marburg Virus. Marburg virus pseudotyped entry inhibition, cell reporter; control for the full effect not named in the record; about a third of the inactives were read at about 46 µM. Potency, µM (doses to about 37.8 µM), without a hit: top-dose activity change, negative = inhibition, usual class: inhibitors. hit rate 1.8% among 300,000. AID 540276, 2011; active = well fitted inhibition curve with a large enough effect; inconclusive = small, poorly fitted or top-dose-only effect, or effect the other way; inactive = flat fitted curve, though single readings scatter; tested in HEK293 cells; about a fifth of its hits are not listed in these tables; note: % is set by controls: 0 for no effect and ±100 for the full control effect; luciferase read-out
Cruzain inh Det = qHTS Assay for Promiscuous and Specific Inhibitors of Cruzain (with detergent); hit rate 0.43% among 200,000; Cruzipain (Trypanosoma cruzi), P25779; purified cruzain, Z-FR-AMC fluorescence, 0.01% Triton; Potency, µM, inactives show max response, negative = inhibition, most hits filed as inhibitors;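 note: plate controls were neutral wells for no effect and buffer without enzyme for full effect; nearly all actives have a fitted effect of over 40% in size; top concentration of the series not given in the record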
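Cysteine protease activity tested under reducing, mildly acidic conditions (100 mM sodium acetate pH 5.5, 5 mM DTT) plus 0.01% Triton X-100. Cruzain 1.5 nM; substrate Z-FR-AMC 2 uM; 15 min compound preincubation at room temperature.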
NS1 inh = qHTS Assay for Inhibitors of Influenza NS1 Protein Function; AID 2326, 2010; hit rate 0.4% among 270,000; Potency, µM (top dose mostly 46.1 µM), for inactives: at the top dose activity, positive = more growth; S. cerevisiae slowed by influenza A NS1, growth recovery by OD600; active means well fitted rising curve with a large enough effect; inconclusive means small, poorly fitted or top-dose-only effect; inactive means no such curve, though single readings can be large or run the other way; note: nearly all actives have a fitted effect of over 50% in size
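OD600 was taken as the measure of yeast growth restored by compound in an NS1-expressing S. cerevisiae strain. Cells had been washed out of glucose medium and diluted 1:100 into galactose -URA medium, pH 6.0.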
* marks the source's active call; other numbers are inactive results; u = inconclusive; x = no result given; & = joins results of further samples; [ ] = another dose, or the depositor's remark. Unless noted, calls come from the whole dose curve; as a rule, active = well fitted curve in the direction sought with a large enough effect; inconclusive = small, poorly fitted or top-dose-only effect, or another doubt; inactive = no such curve, though single readings can be large; an effect the other way counts as inactive or inconclusive. Potency is the fitted concentration of half-maximal effect.

A first look:
SMILES | 2A StopGo | SARS PLpro yeast | Cruzain inh noDet | RE007 growth inh | LASV entry inh | Marburg entry inh | Cruzain inh Det | NS1 inh
COc1cc(/C=C2\SC(c3ccc(C)cc3)=NC2=O)ccc1O | x | -10% | 2% | -12% | u | 9% | -18% | -3%
CCCc1nc(NCc2ccc3c(c2)OCO3)c2nnn(Cc3ccccc3Cl)c2n1 | -2% | u | 7.9µM* | 1% | -3% | 0% | 0.0% | 25%

All compounds of this part (from the top)
SMILES | 2A StopGo | SARS PLpro yeast | Cruzain inh noDet | RE007 growth inh | LASV entry inh | Marburg entry inh | Cruzain inh Det | NS1 inh
COc1cc(/C=C2\SC(c3ccc(C)cc3)=NC2=O)ccc1O | x | -10% | 2% | -12% | u | 9% | -18% | -3%
CCCc1nc(NCc2ccc3c(c2)OCO3)c2nnn(Cc3ccccc3Cl)c2n1 | -2% | u | 7.9µM* | 1% | -3% | 0% | 0.0% | 25%
N#Cc1nc(COc2ccccc2F)oc1N1CCCCCC1 | 14% | -10% | -20% | 0% | 18% | u | -3.9% | -15%
O=C(/C=C1\SC(=O)N(CC(=O)Nc2ccc(Cl)cc2)C1=O)Nc1ccc(F)cc1 | 0% | -3% | u | -6% | 23% | -22% | -2.6% | 3%
Cc1oc(-c2ccccc2)nc1CNC(=O)Nc1ccccc1 | -3% | x | -3% | x | -9%[46.1 µM] | x | -6.9% | x
COC(=O)c1ccc(CN2CCCC(CO)(Cc3ccc(F)cc3F)C2)cc1 (stereo not given) | -12% | -9% | x | 2% | -29%[46.1 µM] | u | x | 12%
O=C(CCc1nnc(CCCCc2ccccc2)o1)NC1CCCC1 | -9% | -1% | x | 1% | 8%[46.1 µM] | 2%[46.1 µM] | x | -2%
CCN(CC)c1ccc(/C=C(\C#N)C(N)=S)cc1 | 27% | 1% | x | 2% | x | x | x | -2%
CCOc1ccc(NC(=O)CSCc2cnn(-c3ccccc3)c2-n2cccc2)cc1 | -24% | -17% | 19% | 1% | 5% | 0% | -2.5% | -96%
CCOCCCn1c(SCC(=O)Nc2ccc(CC)cc2)nc2ccccc2c1=O | -25% | x | u | x | -19%[46.1 µM] | x | -3.9% | x
CCCCN(C(=O)/C=C/c1ccco1)c1c(N)n(Cc2ccccc2)c(=O)[nH]c1=O | 3% | 2% | x | 3% | 2% | u | x | x
CCC(COC(C)=O)Nc1nc2c([nH]1)c(=O)n(C)c(=O)n2C (stereo not given) | -12% | 0% | x | 4% | -2%[46.1 µM] | u | x | 2%
O=C(O)/C(=C\c1ccccc1Cl)c1ccc(S(=O)(=O)N2CCCCC2)s1 | 7% | -9% | 8% | 5% | x | x | -13% | u
O=C(c1ccc(S(=O)(=O)N2CCOCC2)cc1)N1CCN(c2cccc(Cl)c2)CC1 | u | -1% | u | 1% | -48%[14.3 µM] | -21% | -6.3% | -5%
O=C(N/N=C/c1ccc(OC(=O)c2ccco2)cc1)c1ccccn1 | 9% | -1% | x | 2% | u | u | x | -23%
COc1ccccc1C1C(C(=O)c2ccco2)=C(O)C(=O)N1c1cc(C)on1 (stereo not given) | 9% | 4% | x | -1% | -17% | u | x | 7%
Cc1noc(C)c1C(=O)OCC(=O)Nc1ccccc1C(=O)NC(C)c1ccccc1 (stereo not given) | u | -13% | 7% | 4% | u | u | -6.0% | -21%
O=C(NNC(=S)NCCCN1CCOCC1)c1ccncc1 | -10% | 0% | x | -5% | 0% | 15%[14.2 µM] | x | 0%
COc1ccc(C2=NCC(CSc3nnc(-c4ccc5c(c4)OCO5)o3)S2)cc1 (stereo not given) | u | -10% | 3% | 11% | 9% | u | -2.0% | -67%
COC(=O)c1sc2nc[nH]c(=O)c2c1C | -21% | 5% | -1% | -21% | 12% | 19% | 0.8% | -1%
CCC(Oc1ccc(C)c(C)c1)C(=O)N1CCCN(C)CC1 (stereo not given) | -2% | -7% | x | -10% | x | x | x | 1%
Fc1ccc(NC(=S)N2CCCC2)cc1 | 26% | x | x | -17% | 12% | 16% | x | x
C=CCN(Cc1nc(-c2ccc(OC)cc2)no1)C(=O)c1ccc2c(c1)OCO2 | -28% | 2% | x | -1% | u | u | x | -11%
O=C(NCCSc1c(-c2ccc(F)cc2)[nH]c2ccccc12)c1ccc(S(=O)(=O)N2CCOCC2)cc1 | u | x | u | x | u | u | -3.0% | x
Cc1ccc(-n2c(=O)c3sccc3n(Cc3cc(=O)n4cc(Cl)ccc4n3)c2=O)cc1F | 0% | -3% | -2% | u | 15% | 0% | -9.5% | 10%
Cc1ccc(S(=O)(=O)NNC(=O)C2CC=CCC2C(=O)O)cc1 (stereo not given) | -6% | 0% | x | -11% | -17% | 13%[46.1 µM] | x | 3%
O=C(NCC(=O)N(CCc1ccccc1)C(C(=O)NC1CCCCC1)c1ccncc1)c1ccco1 (stereo not given) | -17% | 27% | u | -7% | 1% | 5%&-13% | 2.1% | -16%
C=CCn1c(C(C)NC(=O)c2ccccc2C)n[nH]c1=S (stereo not given) | 14% | 12% | 12% | -1% | 14% | u | -2.3% | 19%
Cc1ccc(NS(=O)(=O)c2ccc(CCC(=O)NCCCOC(C)C)cc2)cc1 | 27% | 9% | 30% | 3% | 13% | 18% | -0.2% | -6%
O=C1N(Cc2cccnc2)C[C@@H]2C[C@@H](c3ccc4nsnc4c3)N3CCC[C@@]123 | 3% | 1% | x | -11% | -9% | u | x | 4%
Cc1ccccc1-n1nc2c(c1NC(=O)c1ccc(S(=O)(=O)N(C)C)cc1)CSC2 | x | 4% | -15% | -6% | u | -27% | -0.4% | -10%
CC1CC(=O)Nc2ccccc2N1S(=O)(=O)c1ccccc1 (stereo not given) | -11% | 5% | -1% | -13% | 6% | 5% | 4.6% | 18%
COc1ccc(C(NC(=O)N2CC(C)OC(C)C2)C(Cl)(Cl)Cl)cc1F (stereo not given) | -7% | 26% | 13% | -6% | 13% | -11% | 0.7% | -5%
O=S(=O)(c1ccccc1)c1nc(Nc2ccccc2N2CCOCC2)sc1Cl | x | 2% | -16% | 12% | u | u | -4.7% | 6%
CCOC(=O)N1CCN(C(=O)Cc2ccccc2OC)CC1 | -23% | 5% | x | 3% | -1% | 17% | x | 2%
CC(=O)Nc1cccc(/C(C)=N/NC(=O)c2ccc(CN3CCOCC3)cc2)c1 | -10% | 0% | x | -19% | -15% | 8%[46.1 µM] | x | x
O=S(=O)(NC1CCCC1)c1ccc(S(=O)(=O)N2CCN(c3ccccc3)CC2)cc1 | -21% | -2% | -5% | -2%[3.69 µM] | -15% | -24% | 5.1% | 4%
COc1ccc(CN2CCC(=O)N([C@H](CO)c3ccccc3)CC2)cc1 | -15% | 1% | x | 2% | x | x | x | 10%
Cc1c(C(=O)OCC(=O)Nc2ccc(C(=O)N(C)C)cc2)oc2ccccc12 | -2% | 0% | x | 4% | u | -3%[46.1 µM] | x | -8%
COCCCNC(=O)C1CCCN(S(=O)(=O)c2cccc3nsnc23)C1 (stereo not given) | 11% | 7% | x | -5% | 16%[46.1 µM] | 16%[46.1 µM] | x | 5%
CC(N=Cc1ccccc1O)c1ccccc1 (stereo not given) | 13% | 16% | -12% | 1% | 0% | 4%&4% | 3.3% | 7%
O=C(CC1NC(=O)NC1=O)NC1(C(=O)NC2CCCCC2)CCCCC1 (stereo not given) | 0% | 0% | -1% | 10% | -12% | -4% | -3.6% | 0%
COc1ccccc1C(=O)COC(=O)CCNS(=O)(=O)c1ccc(C)c(C)c1 | 17% | -3% | x | -3% | 13% | 5% | x | x
Fc1ccccc1-c1csc(=Nc2cccnc2)n1CCCn1ccnc1 | u | -25% | -5% | -4% | -25% | u | -6.7% | -2%
COc1ccccc1CNc1ncnc2c1nc1n2CCCC1 | -16% | x | 5% | x | u | u | -2.2% | x
Cc1cccc(C(=O)Nc2ccc(C(=O)/C=C/c3cccs3)cc2)c1 | 24% | 0% | u | -13% | -3% | u | 3.7% | -11%
Cc1ccc(C2CCN(C(=O)c3cnn(-c4ccc(C)c(C)c4)c3C3CCN(C(=O)OC(C)(C)C)CC3)C2)cc1 (stereo not given) | u | x | -16% | x | u | x | -2.0% | x
Fc1ccccc1-c1nc(-c2ccncc2)no1 | 2% | -1% | x | u | x | x | x | -7%
Cc1noc(/C=C/c2ccco2)c1S(=O)(=O)N1CCC(C(=O)N(C)Cc2ccccc2)CC1 | -7% | -5% | 3% | 13% | -8% | -7%&-7% | -7.6% | 7%
Cc1cc2c(c(=O)n1CC1CCCO1)C(c1ccc3c(c1)OCO3)C(C#N)=C(N)O2 (stereo not given) | 1% | -2% | -3% | -7% | 2% | -5% | 1.1% | -2%
CC1CCC(N2CC(=O)N(C3CCCC3)C(c3ccc(Cl)cc3)C2=O)CC1 (stereo not given) | -24% | x | -13% | x | 28%[46.1 µM] | x | 0.7% | x
Clc1ccc(OCCCn2cncn2)cc1Cl | -10% | -25% | 5% | 4% | 3% | -4% | -0.6% | -117%
CC(=O)N1CCc2cc(S(=O)(=O)NC(C(=O)Nc3ccc(C)cc3C)C(C)C)ccc21 (stereo not given) | 3% | x | -10% | x | -13%[46.1 µM] | -12%[46.1 µM] | -1.4% | x
CN(c1ccccc1C(=O)Nc1ccc(CC#N)cc1)S(=O)(=O)c1ccccc1 | -16% | 3% | x | 0% | -7% | 3% | x | 2%
O=C(Nc1ccc2nc(SCCOc3ccccc3)sc2c1)c1ccc2c(c1)OCO2 | u | x | 1% | x | 13%[46.1 µM] | 14%[46.1 µM] | -2.7% | x
CC1CCN(S(=O)(=O)c2ccc(C(=O)NCc3ccc4c(c3)OCO4)cc2)CC1 | -3% | 1% | -3% | 13% | -7% | u | 2.2% | -5%
Cn1cccc1/C=C1\SC(=S)N(NC(=O)c2ccccc2Cl)C1=O | 26% | 4% | 13% | -6% | 7% | 2% | -9.9% | 6%

From PubChem
